# MLL AF4-AF9 inh – blocks AF4 peptide binding to human AF9; P42568; AlphaScreen, biotin-AF4 peptide binding to FLAG-AF9; inhibition, % at 10 µM; actives 0.47% (n = 350,000); AID 651704;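 active means every replicate reaching a set inhibition limit, whatever the replicate mean, cut at about 25% in these data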;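 further: 0% = plate neutral control median and 100% = total signal loss; the record names both 10 and 1 µM as test concentration; the first replicate is given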
# Target sequence (P42568 whole entry, looked up): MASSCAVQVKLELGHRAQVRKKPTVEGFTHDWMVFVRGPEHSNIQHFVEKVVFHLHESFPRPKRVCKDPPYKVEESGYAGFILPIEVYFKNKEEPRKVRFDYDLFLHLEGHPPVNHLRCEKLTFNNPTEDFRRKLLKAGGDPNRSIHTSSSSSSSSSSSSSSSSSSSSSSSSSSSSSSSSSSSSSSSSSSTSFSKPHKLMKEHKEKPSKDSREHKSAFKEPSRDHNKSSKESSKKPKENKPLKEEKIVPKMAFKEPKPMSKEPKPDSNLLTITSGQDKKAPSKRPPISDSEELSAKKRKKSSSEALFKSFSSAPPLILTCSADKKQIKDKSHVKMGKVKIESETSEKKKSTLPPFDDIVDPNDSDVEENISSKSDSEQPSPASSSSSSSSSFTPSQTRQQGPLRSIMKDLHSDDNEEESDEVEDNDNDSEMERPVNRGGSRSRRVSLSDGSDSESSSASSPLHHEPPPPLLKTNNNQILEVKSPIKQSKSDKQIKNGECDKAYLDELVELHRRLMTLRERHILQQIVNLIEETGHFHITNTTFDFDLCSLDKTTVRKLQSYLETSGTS
# * marks the source's active call; other numbers are inactive results; & = joins results of further samples. An excerpt; rates above refer to the full screens.
SMILES	MLL AF4-AF9 inh
COC(=O)[C@H]1[C@H](CO)[C@H]2Cn3c(ccc(-c4cncnc4)c3=O)[C@@H]1N2S(=O)(=O)c1ccccc1C	0.0
O=C(Cc1cccnc1)N1CCCCN2[C@H](C1)[C@H](c1ccc(C#CC3CC3)cc1)[C@@H]2CO	-0.2
O=S(=O)(c1ccc(Cl)cc1)N1Cc2cc(Br)ccc2-n2nncc2C1	1.2
CC=Cc1ccc2n(c1=O)C[C@H]1[C@H](CO)[C@@H](C(=O)OC)[C@@H]2N1CC1CC1 (mixture of isomers)	-0.3
O=C1NCN(c2ccccc2)C12CCN(C(c1ccccc1)c1nnnn1-c1ccc3c(c1)OCCO3)CC2 (stereo not given)	-6.5
COC(=O)C[C@H]1CC[C@H]2NC[C@H](O)COC[C@@H]2O1	-0.6
O=C(O)[C@@H]1[C@@H](CO)[C@@H]2Cn3c(ccc(-c4ccncc4)c3=O)[C@H]1N2C(=O)C1CCC1	-1.6
COc1ccc(C#Cc2ccc([C@@H]3[C@H](CO)N4CCCCN(C(=O)Cc5cccnc5)C[C@@H]34)cc2)cc1	-0.3
O=C(Cc1cccnc1)N1CCCCN2[C@@H](CO)[C@@H](c3ccc(C#CC4CCCC4)cc3)[C@@H]2C1	3.1
Cc1ccc(CN2Cc3ccc(Br)cc3-n3nncc3C2)cc1	4.8
CCC1(CCC(C)C)C(=O)NC(=O)N(c2ccccc2)C1=O (stereo not given)	-2.3
CC(C)(C)n1nnnc1C(CCc1ccccc1)N1CCC(n2c(=O)[nH]c3ccccc32)CC1 (stereo not given)	2.4
O=C(O)C[C@@H]1CC[C@H]2NC[C@@H](O)COC[C@@H]2O1	-3.2
Nc1c(Br)cc2c3c(cccc13)-c1ccccc1-2	0.5
Cc1ccc(OC(=O)N(C)C[C@H]2OCc3ccccc3-c3c(n(C)c4ccccc34)C(=O)N([C@@H](C)CO)C[C@@H]2C)cc1	1.5
CC(C)NC(=O)N1[C@@H]2c3ccc(-c4cccc(C(=O)N(C)C)c4)c(=O)n3C[C@H]1[C@H](CO)[C@H]2C(=O)O	-0.8
COC(=O)[C@@H]1[C@@H](CO)[C@@H]2Cn3c(ccc(-c4ccc(OC)cc4)c3=O)[C@H]1N2C(=O)c1ccccc1F	-16
COc1ccc(-n2nnnc2C(c2cccs2)N2CCC3(CC2)C(=O)NCN3c2ccccc2)cc1 (stereo not given)	0.4
CCCCCN1C(=O)c2cc(OC)ccc2[C@@]2(C(=O)OCC)Cc3cc(OC)ccc3[C@@H]12	-3.0
COC(=O)[C@H]1[C@H](CO)[C@H]2Cn3c(ccc(-c4ccccc4)c3=O)[C@@H]1N2CCc1ccccc1	0.4
O=C(Cc1ccccn1)N1CCCCN2[C@H](CO)[C@@H](c3ccc(C#Cc4ccccc4)cc3)[C@@H]2C1	-1.9
CCC(C)(O)C(=O)OC1C(=O)OC2CC3C(C)=CC(O)C(O)C3(C)C3C4(O)OCC23C1C(C)C4O (stereo not given)	-2.5
c1cc2c(cc1N1CCOCC1)CNCc1cnnn1-2	-2.2
COc1ccc(C#Cc2ccc([C@H]3[C@@H](CO)N4CCCCN(C(=O)Cc5ccncc5)C[C@@H]34)cc2)cc1	-2.1
Clc1cccc(Cl)c1NC1=NCCS1	-0.1

# Exported with each value named: part of the list above.
COC(=O)[C@@H]1[C@@H](CO)[C@@H]2Cn3c(ccc(-c4ccc(OC)cc4)c3=O)[C@H]1N2C(=O)c1ccccc1F
  MLL AF4-AF9 inh: -16

COc1ccc(-n2nnnc2C(c2cccs2)N2CCC3(CC2)C(=O)NCN3c2ccccc2)cc1 (stereo not given)
  MLL AF4-AF9 inh: 0.4

CCCCCN1C(=O)c2cc(OC)ccc2[C@@]2(C(=O)OCC)Cc3cc(OC)ccc3[C@@H]12
  MLL AF4-AF9 inh: -3.0

COC(=O)[C@H]1[C@H](CO)[C@H]2Cn3c(ccc(-c4ccccc4)c3=O)[C@@H]1N2CCc1ccccc1
  MLL AF4-AF9 inh: 0.4

# (more compounds)
SMILES	MLL AF4-AF9 inh
C=CC1C[N+]2(C)CCC1CC2C(O)c1ccnc2ccccc12 (stereo not given)	-1.4
O=C(Cc1ccccc1)N1CCCCN2[C@H](CO)[C@@H](c3ccc(C#CC4(O)CCCC4)cc3)[C@@H]2C1	-7.4
CCC(c1nnnn1C1CCCC1)N1CCC2(CC1)C(=O)NCN2c1ccccc1 (stereo not given)	-6.6
Cc1cccc(C)c1-n1nnnc1C(c1cccc2ccccc12)N1CCC(n2c(=O)[nH]c3ccccc32)CC1 (stereo not given)	2.4
O=C(Cc1ccccc1)N1CCCCN2[C@H](C1)[C@@H](c1ccc(C#Cc3ccccc3)cc1)[C@@H]2CO	-3.8
COC1CC2C=C(C)C=CC=CC(=O)NC(c3ccccc3)CC=CCCC(O)CC(=O)C2=C1O (stereo not given)	-0.3
COC(=O)[C@H]1[C@H](CO)[C@H]2Cn3c(ccc(-c4ccncc4)c3=O)[C@@H]1N2CCc1ccccc1	-0.1
COC(=O)C[C@H]1CC[C@H]2NC[C@@H](O)COC[C@@H]2O1	-1.0
N#Cc1ccc(-c2ccc([C@@H]3[C@H]4CN(C(=O)Cc5ccccc5)CCCCN4[C@H]3CO)cc2)cc1	-7.4
O=[N+]([O-])c1nccn1CC(O)CN1CC1 (stereo not given)	14
CCOC(=O)[C@]12Cc3cc(OC)ccc3[C@H]1N(Cc1ccccc1)C(=O)c1ccccc12	-0.1
CCC1(c2ccc(C)cc2)C(=O)NC(=S)NC1=O	-6.1
CCc1nn2c(=O)c(F)c(N3CCNCC3)nc2s1	-13
O=C(NC1CCCCC1)N1Cc2cc(N3CCCCC3)ccc2-n2nncc2C1	1.1
C/C=C/c1ccc(C2[C@@H]3CN(C(=O)C4CCOCC4)C[C@H]2N3)cc1 (stereo not given in full)	-1.5&-3.6
COc1ccc(OC(=O)N(C)C[C@H]2OCc3ccccc3-c3c(n(C)c4ccccc34)C(=O)N([C@H](C)CO)C[C@@H]2C)cc1	3.8
O=C(O)[C@@H]1[C@@H](CO)[C@@H]2Cn3c(ccc(-c4ccccc4)c3=O)[C@H]1N2C(=O)C1CCCCC1	0.8
COC(=O)[C@@H]1[C@@H](CO)[C@@H]2Cn3c(ccc(C4=CCCC4)c3=O)[C@H]1N2C(=O)CC1CC1	-0.4
CC=Cc1ccc2n(c1=O)C[C@@H]1[C@@H](CO)[C@H](C(=O)OC)[C@H]2N1C(=O)CC (mixture of isomers)	0.4
O=C(Cc1cccnc1)N1CCCCN2[C@H](CO)[C@@H](c3ccc(C#CC4CC4)cc3)[C@@H]2C1	0.6
C/C=C/c1ccc([C@@H]2[C@H](CO)N3CCCCN(C(=O)Cc4cccnc4)C[C@@H]23)cc1	-0.9
CC(C)(C)C(=O)N1Cc2cc(-c3cccc(F)c3)ccc2-n2nncc2C1	-2.2
COc1ccc(-n2nnnc2C(CCc2ccccc2)N2CCC(n3c(=O)[nH]c4ccccc43)CC2)cc1 (stereo not given)	-0.1
COc1ccc(-c2ccc([C@H]3[C@@H](CO)N4CCCCN(C(=O)Cc5ccccc5)C[C@@H]34)cc2)cc1	-0.4
O=C(Cc1ccccn1)N1CCCCN2[C@@H](CO)[C@@H](c3ccc(Br)cc3)[C@@H]2C1	2.5
COc1cc(C=C2C(=O)NC(=O)NC2=O)ccc1OCc1ccc([N+](=O)[O-])cc1	-2.8
NCCc1cc(O)c(O)cc1O	7.2&-2.7
CC=Cc1ccc2n(c1=O)C[C@@H]1[C@@H](CO)[C@H](C(=O)O)[C@H]2N1S(=O)(=O)c1ccccc1F (mixture of isomers)	-1.6
CC(C)(C)n1nnnc1C(c1ccnc2ccccc12)N1CCC2(CC1)C(=O)NCN2c1ccccc1 (stereo not given)	5.8
O=C(O)[C@H]1[C@H](CO)[C@H]2Cn3c(ccc(C4=CCCCC4)c3=O)[C@@H]1N2C(=O)Cc1ccccn1	1.9
O=C1NCN(c2ccccc2)C12CCN(C(c1ccnc3ccccc13)c1nnnn1C1CCCCC1)CC2 (stereo not given)	2.8
COC(=O)[C@H]1[C@H](CO)[C@H]2Cn3c(cccc3=O)[C@@H]1N2CCc1ccccc1	-0.8
O=C(Cc1ccccc1)N1CCCCN2[C@H](C1)[C@@H](c1ccc(C#CC3(O)CCCC3)cc1)[C@@H]2CO	-14
CC[C@@H]1c2ccccc2[C@@H]2CC[C@H]1N2c1ccccc1	3.9
COC(=O)[C@@H]1[C@@H](CO)[C@@H]2Cn3c(cccc3=O)[C@H]1N2Cc1nccs1	-2.4
COC(=O)[C@@H]1[C@@H](CO)[C@@H]2Cn3c(ccc(-c4ccc(F)cc4)c3=O)[C@H]1N2C(=O)c1ccccc1F	0.5
COc1ccc(C(c2nnnn2C2CCCCC2)N2CCC3(CC2)C(=O)NCN3c2ccccc2)cc1 (stereo not given)	2.3
COc1ccc(-c2ccc3c(c2)CN(C(=O)C(C)(C)C)Cc2cnnn2-3)cc1	-3.3
O=C1CC(=O)N(Cc2ccccc2)C(=O)N1	-1.9
C/C=C/c1ccc(C2[C@@H]3CN(C(=O)C4CC4)C[C@H]2N3)cc1 (stereo not given in full)	-10&-1.1
COc1ccc(C#Cc2ccc([C@H]3[C@H]4CN(C(=O)Cc5cccnc5)CCCCN4[C@H]3CO)cc2)cc1	-5.0
COC(=O)[C@H]1[C@H](CO)[C@H]2Cn3c(ccc(-c4ccccc4F)c3=O)[C@@H]1N2Cc1cccnc1	2.2
COc1ccc(-c2ccc([C@H]3[C@H](CO)N4CCCCN(C(=O)Cc5ccccc5)C[C@@H]34)cc2)cc1	3.6
COC(=O)[C@@H]1[C@@H](CO)[C@@H]2Cn3c(ccc(C4=CCCCC4)c3=O)[C@H]1N2CC1CCCCC1	8.2
S=C(NCCc1ccccc1)N1Cc2cc(N3CCOCC3)ccc2-n2nncc2C1	6.2
CC(C)NC(=O)N1[C@@H]2Cn3c(ccc(-c4cccc(C(=O)N(C)C)c4)c3=O)[C@H]1[C@@H](C(=O)O)[C@@H]2CO	-0.6
CC(N)Cc1c[nH]c2ccc(O)cc12 (stereo not given)	4.1
COC(=O)C[C@@H]1CC[C@@H]2NC[C@@H](O)COC[C@H]2O1	-1.0
O=C(Cc1ccccn1)N1CCCCN2[C@@H](CO)[C@H](c3ccc(-c4ccc(F)cc4)cc3)[C@@H]2C1	-0.2
O=C1NC(=O)C(Cc2ccccc2)(Cc2ccccc2)C(=O)N1	3.4

# Remaining list, next part:
SMILES	MLL AF4-AF9 inh
COc1ccc(OC(=O)N(C)C[C@H]2OCc3cnnn3CCCC(=O)N([C@@H](C)CO)C[C@@H]2C)cc1	1.6&0.7
Cc1ccc(S(=O)(=O)Oc2ccccc2C=C2C(=O)NC(=O)NC2=O)cc1	-1.2
C/C=C/c1ccc(C2[C@@H]3CN(C(=O)CN(C)C)C[C@H]2N3)cc1 (stereo not given in full)	14&8.3
COC(=O)[C@@H]1[C@@H](CO)[C@@H]2Cn3c(ccc(C4=CCCCC4)c3=O)[C@H]1N2CCc1ccccc1	5.0
O=C(Cc1ccccc1)N1CCCCN2[C@H](CO)[C@H](c3ccc(-c4ccccc4)cc3)[C@@H]2C1	-2.1
CCOC(=O)[C@]12Cc3cc(Cl)ccc3[C@H]1N(Cc1ccccc1)C(=O)c1ccccc12	2.5
CCOC(=O)C(c1c(O)c2ccccc2oc1=O)c1c(O)c2ccccc2oc1=O	-6.6
O=C(NCCN1CCC2(CC1)C(=O)NCN2c1ccccc1)c1ccc(Cl)cc1	6.1
CC=Cc1ccc2n(c1=O)C[C@@H]1[C@@H](CO)[C@H](C(=O)OC)[C@H]2N1CC1CCOCC1 (mixture of isomers)	0.3
CCCC#Cc1ccc([C@@H]2[C@@H](CO)N3CCCCN(C(=O)Cc4ccccn4)C[C@H]23)cc1	5.9
CCOC(=O)[C@]12Cc3ccccc3[C@H]1N(C(C)C)C(=O)c1cc(OC)ccc12	-3.3
O=C(Cc1ccncc1)N1CCCCN2[C@@H](CO)[C@H](c3ccc(-c4ccncc4)cc3)[C@@H]2C1	-2.4
COc1cccc(-c2ccc([C@H]3[C@H](CO)N4CCCCN(C(=O)Cc5ccncc5)C[C@@H]34)cc2)c1	-9.2
COc1cccc(-c2ccc([C@@H]3[C@@H](CO)N4CCCCN(C(=O)Cc5ccncc5)C[C@@H]34)cc2)c1	-7.0
C[C@@H]1CN([C@@H](C)CO)C(=O)CCCn2nncc2CO[C@H]1CN(C)C(=O)Oc1ccc2ccccc2c1	2.0&1.5
O=C(Cc1ccccn1)N1CCCCN2[C@H](CO)[C@@H](c3ccc(-c4ccccc4F)cc3)[C@H]2C1	-3.5
O=C(O)[C@@H]1[C@@H](CO)[C@@H]2Cn3c(ccc(-c4cccnc4)c3=O)[C@H]1N2C(=O)Nc1cc(F)ccc1F	0.5
Fc1cccc(-c2ccc3c(c2)CN(c2cccc(Cl)c2)Cc2cnnn2-3)c1	-1.5
C=CCN1Cc2ccccc2-n2nncc2C1	-5.1
CCOP(=O)(NC(C)C)Oc1ccc(SC)c(C)c1 (stereo not given)	-1.0
N#CC1c2ccccc2-n2nncc2CN1C(=O)c1ccccc1F (stereo not given)	0.0
COC(=O)[C@@H]1[C@@H](CO)[C@@H]2Cn3c(cccc3=O)[C@H]1N2C(=O)C1CCC1	-1.8
COc1ccc(-n2nnnc2C(CCSC)N2CCC3(CC2)C(=O)NCN3c2ccccc2)cc1 (stereo not given)	4.4
COC(=O)[C@@H]1[C@@H](CO)[C@@H]2Cn3c(ccc(-c4ccc(F)cc4)c3=O)[C@H]1N2C(C)=O	-1.5
O=C1CNC[C@H]2[C@@H](c3ccc(Br)cc3)[C@H](CO)N12	-0.2
Cc1ccc(-n2c(=S)[nH]c3ccccc3c2=O)cc1F	0.0
Cc1cccc(C)c1-n1nnnc1C(c1ccccc1)N1CCC2(CC1)C(=O)NCN2c1ccccc1 (stereo not given)	1.5

# Compound activity (PubChem BioAssay)
